From PubChem
Hedgehog: Drosophila hedgehog isoform A inhibitors, primary screen, biochemical, plate reader, single concentration (AID 588832) | Biochemical plate reader assay, Hedgehog inhibition; stronger effect = higher value | inhibition, % at 30.3 µM | 8,000 tested, under 10 active; in the data active = inhibition from about 57%;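 note: 0% = neutral control wells and 100% = positive control wells; cholesterol-driven self-cleavage of fly hedgehog protein by fluorescence polarization; read one hour after cholesterol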
Starred values were filed as active, the others as inactive. An excerpt; count on the stated rates, not on these rows.

compound | Hedgehog
CC(=O)OC(c1nc2ccccc2c(=O)n1C1CC2(OC1=O)c1ccccc1N1C(=O)C(C)(C)N(O)C12)C(C)C (configuration not stated) | 7
CC(Sc1nnc(N)s1)c1ccccc1Cl (configuration not stated) | 17
CC1=C(O)c2ccccc2C(=O)C1=O | 3
CC(=O)O[C@H]1[C@@H](O)[C@H](O)[C@H](Oc2c(O)c(C)c3c4c2[C@@H](C)CC[C@@H]4[C@@H](C)C[C@@H]3C=C(C)C)O[C@H]1C | 7
Cc1cccc(N2CCN(C(=O)C(Cc3ccccc3)n3cccc3)CC2)c1C (configuration not stated) | 4
Cc1ccc(S(=O)(=O)N[C@H](C(=O)N2CCC(C(=O)N[C@@H](CCC(N)=O)C(=O)O)CC2)C(C)C)cc1 | 7
Cc1nc(CCNC(=O)Cc2ccc(F)cc2)cs1 | 7
Cc1cccc(NS(=O)(=O)c2coc(C(N)=O)c2)c1C | 12
COc1c(O)ccc2c1CN1CCc3cc4c(cc3C1C2)OCO4 (configuration not stated) | 2
COc1ccc(C2c3[nH]c4ccccc4c3C[C@H]3C(=O)N(c4ccccc4C(=O)NCCN4CCOCC4)C(=O)N23)cc1 (some centres not stated) | 7
COCCn1c(CN(C)Cc2ccccc2)nc2c1c(=O)n(C)c(=O)n2C | 1
COc1ccc(CNC(=O)c2cccc3c2C(=O)N(CC2CCCO2)C3)cc1 (configuration not stated) | 5
Cc1ccc(N(C)C(=O)c2cc(S(=O)(=O)N3CCCC3)cn2C)cc1 | 7
CCOC(=O)N1CCC(NC(=O)Cn2cc3c(n2)CCCC3)CC1 | 30
CC1CCCCC1NC(=O)c1nnc(Cc2ccc(Cl)cc2)o1 (configuration not stated) | 15
Cc1csc2ncc(C(=O)N3CCc4ccccc43)c(=O)n12 | -2

5 compounds out of the list, sorted by number of heavy atoms, largest number first:
compound | Hedgehog
COc1ccc(C2c3[nH]c4ccccc4c3C[C@H]3C(=O)N(c4ccccc4C(=O)NCCN4CCOCC4)C(=O)N23)cc1 (some centres not stated) | 7
COCCn1c(CN(C)Cc2ccccc2)nc2c1c(=O)n(C)c(=O)n2C | 1
Cc1ccc(N(C)C(=O)c2cc(S(=O)(=O)N3CCCC3)cn2C)cc1 | 7
CCOC(=O)N1CCC(NC(=O)Cn2cc3c(n2)CCCC3)CC1 | 30
CC1CCCCC1NC(=O)c1nnc(Cc2ccc(Cl)cc2)o1 (configuration not stated) | 15

(list continues)
compound | Hedgehog
Cc1cc(C)n2nc(SCc3nc4ccccc4[nH]3)nc2n1 | 8
COc1ccc(N(C(=O)c2ccncc2)S(=O)(=O)c2ccc(OC)c(OC)c2)cc1 | 11
CC(=O)N1CCN(c2ccc(NCc3ccc(F)cc3)cc2)CC1 | 23
COc1ccc(-n2c(Cc3cccn3C)nnc2SCC(=O)N2CCOCC2)cc1 | 15
CCN(Cc1ccccc1)S(=O)(=O)c1ccc(S(=O)(=O)N2CCN(CCC#N)CC2)cc1 | 8
CCOC(=O)N1CCC(NC(=O)c2ccc3snnc3c2)CC1 | 7
CC(C)C[C@H](NC(=O)[C@@H]1Cc2c([nH]c3ccccc23)C2c3ccccc3C(=O)N21)C(=O)N1CCC[C@@H]1C(=O)O (some centres not stated) | 2
CCOCCn1c(CN2CCN(C(=O)c3ccco3)CC2)nc2c1c(=O)n(C)c(=O)n2C | 18
Cc1cc2cc(CNC(=O)c3cccc([N+](=O)[O-])c3)ccc2n1C | 9
Cc1cc(C)c(S(=O)(=O)N2CCOC2CNC(=O)C(=O)NCCc2c[nH]c3ccccc23)c(C)c1 (configuration not stated) | 5
Cc1oc(-c2ccccc2Cl)nc1CS(=O)(=O)CC(=O)NC1CCCC1 | 7
C=CC(C)(C)c1c(O)c(CC=C(C)C)c(O)c2c(=O)c3ccc(O)c(O)c3oc12 | 3
COc1ccc(NC(=O)Nc2cccc(C)n2)cc1 | 4
COc1cccc(CNC(=O)COc2cc3c(c4oc(=O)cc(C)c24)CCC(C)(C)O3)c1 | -8
O=C(NCC(c1cccnc1)N1CCN(c2ccccc2F)CC1)c1ccccc1 (configuration not stated) | 19
CC(C)C[C@H](NC(=O)[C@H]1N2C(=O)c3ccccc3C2SC1(C)C)C(=O)N[C@@H](Cc1ccccc1)C(=O)O (some centres not stated) | 0
CCOCCn1c(CN2CCCCC2C)nc2c1c(=O)n(C)c(=O)n2C (configuration not stated) | 15
CC(C)n1c(SCc2ccccc2F)nc2c1c(=O)n(C)c(=O)n2C | 4
COc1cccc(NC(=O)C2CCN(S(=O)(=O)c3ccc4[nH]c(=O)ccc4c3)CC2)c1 | 16
N=C1/C(=C\c2ccc(OC(=O)c3ccco3)cc2)C(=O)N=C2SC(N3CCCCC3)=NN12 | 8
COc1cccc(C2CC(c3ccc(Cl)cc3Cl)n3nc(N)nc3N2)c1 (configuration not stated) | 17
COc1ccc(OCc2nnc3n2N=C(c2ccc(C)cc2)CS3)cc1 | 9
COCCn1c(SCCN2CCOCC2)nc2c1c(=O)[nH]c(=O)n2C | 1
CC(C)[C@@H](C(=O)NC1CC1)N1C(=O)N2CCc3c([nH]c4ccccc34)[C@@]2(C)C1=O | -4
CCOC(=O)N1CCC(NC(=O)c2cc3c(-c4ccccc4F)nn(C)c3s2)CC1 | 0
Cn1c(=O)c2c(nc(Sc3ncccn3)n2Cc2ccc(Cl)cc2)n(C)c1=O | 4
CC(C)=CCc1cc([C@@H]2COc3c(ccc4c3C=CC(C)(C)O4)C2)c(O)cc1O | 10
CCc1ccc(NC(=O)c2ccc3c(c2)C(=O)N(Cc2ccco2)C3=O)cc1 | 0
Cc1cc(C)c2c(n1)SCC(=O)N2CC(=O)Nc1ccc(C)c(C)c1 | 9
CCC(Sc1nc2ncccc2[nH]1)C(=O)NC1CCC(C)CC1 (configuration not stated) | -4
CCCc1nc(SCC(=O)N2CCCc3ccccc32)c2c(=O)n(C)c(=O)n(C)c2n1 | 5
Cc1csc2ncc(C(=O)N3CCCc4ccccc43)c(=O)n12 | 0
Cn1c(SCC(=O)NCC2CCCO2)nnc1-c1c[nH]c2ccccc12 (configuration not stated) | -3
Cc1cccc(NC(=O)CCS(=O)(=O)c2ccc3nc(C)sc3c2)c1 | 3
O=C(O)CCC1OC(=O)C(O)=C1c1ccccc1 (configuration not stated) | 5
COc1ccc2[nH]c(C)c(CCN3C(=O)C4CC=CCC4C3=O)c2c1 (configuration not stated) | 25
O=Cc1ccc(Cl)c(Cl)c1 | 5
N#CC(OC(=O)c1ccccc1)c1ccccc1 (configuration not stated) | 2
Cc1nn(C)c(C)c1S(=O)(=O)N1CCCC(C(=O)NCC2COc3ccccc3O2)C1 (configuration not stated) | 17
CC(C)c1ccc(C2c3[nH]c4ccccc4c3C[C@H]3C(=O)N(c4ccccc4C(=O)N4CCC[C@@H]4C(=O)O)C(=O)N23)cc1 (some centres not stated) | -11
Cc1ccccc1CNC(=O)CCC(=O)N1CCOc2ccccc21 | 2
CCOc1ccc(Nc2cc(C)nc3nc(C)nn23)cc1 | 10
COc1ccc(-c2cc(=O)c3cc(O)ccc3o2)cc1 | 3
O=C(NCC1CCCO1)c1cc2c([nH]c3ccccc32)c(-c2cccc(Br)c2)n1 (configuration not stated) | 7
CCOC(=O)C1C2C=CC3(CN(c4ccc(Cl)c(F)c4)C(=O)C13)O2 (configuration not stated) | 15
O=C1c2ccccc2C(Nc2ccc3c(c2)OCCO3)N1Cc1ccccc1 (configuration not stated) | 17
O=c1cc(-c2ccc(O)cc2)oc2c(C3OCC(O)C(O)C3O)c(O)c(C3OC(CO)C(O)C(O)C3O)c(O)c12 (configuration not stated) | 5
COCCN1Cc2cccc(C(=O)Nc3ccc4c(c3)OCCO4)c2C1=O | 11

Copied from the results shown for reference:
compound | Hedgehog
CCOC(=O)C1C2C=CC3(CN(c4ccc(Cl)c(F)c4)C(=O)C13)O2 (configuration not stated) | 15
O=C1c2ccccc2C(Nc2ccc3c(c2)OCCO3)N1Cc1ccccc1 (configuration not stated) | 17
O=c1cc(-c2ccc(O)cc2)oc2c(C3OCC(O)C(O)C3O)c(O)c(C3OC(CO)C(O)C(O)C3O)c(O)c12 (configuration not stated) | 5
COCCN1Cc2cccc(C(=O)Nc3ccc4c(c3)OCCO4)c2C1=O | 11

Following part
compound | Hedgehog
COc1ccc(OC)c(CCNC(=O)CCCC(=O)n2ncc3cc(C)ccc32)c1 | 0
Cc1ccccc1C(=O)NC(C)C(c1cccs1)N1CCOCC1 (configuration not stated) | -1
Cc1ccc2c(cnn2C(=O)CCC(=O)NCc2cccc(Cl)c2)c1 | 0
COC(=O)CNC(=O)c1ccccc1 | 10
O=C(CSc1cn(Cc2ccccc2)c2ccccc12)Nc1nccs1 | 10
Cn1c(=O)cc(OCC(=O)NCCCN2CCN(c3cccc(Cl)c3)CC2)c2ccccc21 | -2
CCOC(=O)c1[nH]c2c(c1C)C(=O)CC(c1ccc(F)cc1)C2 (configuration not stated) | 15
Cc1cc(OC(C)C(=O)N(Cc2ccco2)C2CCS(=O)(=O)C2)cc(C)c1Cl (configuration not stated) | 12
COc1ccc(N2CC(C(=O)N[C@@H](C)C(=O)N[C@H](CO)c3ccccc3)CC2=O)cc1 (some centres not stated) | 7
COc1ccc2[nH]c3c(C)c4ccncc4c(C)c3c2c1 | 3
COc1cccc(-c2cc(C(=O)N3CCCCCC3)no2)c1 | 13
CCOc1ccc(C2N(c3ccc(F)cc3)C(=O)C3CCCN32)cc1 (configuration not stated) | 24
COc1ccc(NS(=O)(=O)c2c(C)n(C)c(=O)n(C)c2=O)cc1 | 8
CCOCC(=O)NCc1ccc2c(c1)cc(C)n2C | 3
Cc1cc(OCC(=O)NCC2CCC(C(=O)O)CC2)c2c(C)cc(=O)oc2c1 (configuration not stated) | 7
Cc1c(S(=O)(=O)Nc2ccc3c(c2)OCCO3)c(=O)n(C)c(=O)n1C | 19

In another format: results already given
smiles: CCOCCn1c(CN2CCCCC2C)nc2c1c(=O)n(C)c(=O)n2C (configuration not stated)
  Hedgehog: 15
smiles: CC(C)n1c(SCc2ccccc2F)nc2c1c(=O)n(C)c(=O)n2C
  Hedgehog: 4

Continued:
compound | Hedgehog
Cc1ccccc1-n1c(Cn2c(=O)sc3ccccc32)nnc1SCC(=O)Nc1nccs1 | 11
CC(=O)OCC1=C(C(=O)O)N2C(=O)[C@@H](NC(=O)Cc3cccs3)[C@H]2SC1 | 10
Cc1coc2c(C)c3oc(=O)c(CCC(=O)N[C@@H](C)C(=O)N[C@@H](Cc4ccccc4)C(=O)O)c(C)c3cc12 | 2
COc1ccc(CCC(=O)NCCc2cn3c(C)csc3n2)cc1 | 19
CC1(C)CC(=O)N(CC(=O)NCc2ccccc2)c2ccccc2S1(=O)=O | 12
O=C(COc1ccc2c(-c3ccccc3)cc(=O)oc2c1)NCC1CCC(C(=O)O)CC1 (configuration not stated) | 11
Cc1ccccc1-c1nc(CS(=O)(=O)CC(=O)N(C)C2CCCCC2)c(C)o1 | -4
O=C1C=CCCC1 | 9
O=C(CN1CCOc2ccccc21)NCc1ccco1 | 12
CCCCc1cc(=O)oc2cc(OCC(=O)N[C@@H](Cc3ccccc3)C(=O)O)ccc12 | 7
Cc1ccc(Cl)cc1N1CCN(S(=O)(=O)c2ccc3c(c2)NC(=O)C(C)C(=O)N3)CC1 (configuration not stated) | 10
CCCc1cc(=O)oc2cc(C)cc(OCC(=O)N3CCC(C(=O)O)CC3)c12 | 7
CCOC(=O)CSc1n[nH]c(-c2ccco2)n1 | 20
CCOc1ccc(C2CC(c3ccc(OC)c(OC)c3)n3nc(N)nc3N2)cc1 (configuration not stated) | 8
Cc1cc(OC(=O)c2c(C)cc(O)cc2O)cc(O)c1C(=O)O | 5
CCCCc1cc(=O)oc2cc(C)cc(OCC(=O)N[C@@H](CSCc3ccccc3)C(=O)O)c12 | 9
Cn1c(Cc2ccccc2)nc(=O)c2ccccc21 | 3
O=C(COc1ccc2c3c(c(=O)oc2c1)CCC3)N[C@@H](CSCc1ccccc1)C(=O)O | 9
CCCNC(=O)CS(=O)Cc1nc(-c2ccc(OC)cc2)oc1C (configuration not stated) | 0
Cc1cc(C)cc(NC(=O)c2cc(S(=O)(=O)N3CCCC3)cn2C)c1 | 0
CCOC(=O)N1CCC(NC(=O)c2csc3c2CCCC3)CC1 | 6
COC(=O)C(N)CCCCN (configuration not stated) | 3
CC(=O)NC(CCS(C)(=O)=O)C(=O)Nc1cc(C)ccc1C (configuration not stated) | 5
Cc1cc(OC(=O)c2c(C)cc(OC(=O)c3c(C)cc(O)cc3O)cc2O)cc(O)c1C(=O)O | 7
O=c1cc(CO)oc(C(Nc2cccc(C(F)(F)F)c2)c2ccccn2)c1O (configuration not stated) | 4
CCN(CC)S(=O)(=O)c1ccc(C(=O)OCCN2C(=O)CCC2=O)cc1 | 9
Cc1cccc2c1cnn2C(=O)CCC(=O)N1CCC(C)CC1 | 4
Cc1cc2c(cc1S(=O)(=O)N1CCN(c3cccc(C)c3C)CC1)OCCN2C | 12
Cc1ccc(CNC(=O)c2nnc(CS(=O)(=O)c3ccccc3)o2)cc1 | 6
CC(C)Cn1c(CCCNC(=O)c2ccc(F)cc2)nc2ccccc21 | 3
COc1ccc(-c2coc3cc(OC)cc(OC)c3c2=O)cc1 | 5
O=C(Cn1cc2c(n1)CCCC2)NC1CCN(Cc2ccccc2)CC1 | 6
COc1ccc(CNC(=O)[C@H](C)NC(=O)C2CCN(C(=O)[C@H](CCSC)NC(=O)OC(C)(C)C)CC2)cc1 | 4
O=C(O)c1cccnc1C(=O)O | 5
Cc1ccc(-c2[nH]c(-c3ccccc3)nc2SCC(=O)NCC2CCCO2)cc1 (configuration not stated) | 6
CCc1cccc(NC(=O)Cn2cc3c(n2)CCCC3)c1 | 9
O=C1c2oc3ccc(Cl)cc3c(=O)c2C(c2ccco2)N1CCN1CCOCC1 (configuration not stated) | 19
